Bioassay records from PubChem BioAssay.
A647 autofl: qHTS Assay for Spectroscopic Profiling in A647 Spectral Region; max dye-equivalent concentration, M; Compound fluorescence, A647 channel (570/671 nm), Tris buffer; 59,000 tested, under 10 active; AID 592, 2007; active means above 1 µM dye equivalent; inconclusive means 0.1 to 1 µM; inactive means 0.1 µM or less;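 note: values scaled relative to a standard on each plate; highest value over a series up to 38 µM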
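Fluorescence read (570 nm ex, 671 nm em) after 15 min RT incubation of compounds in 100 mM Tris buffer, pH 8.0; values expressed as dye-equivalent concentration against a six-point A647 standard series on each plate.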
TSHR ag: qHTS Assay for Agonists of the Thyroid Stimulating Hormone Receptor. Thyrotropin receptor (Homo sapiens), P16473. HEK293-CNG-TSHR cells (CNG channel as cAMP sensor), membrane potential dye, cAMP. Potency, µM (highest dose often 57.1 µM), for the others: at the top dose activation, actives largely listed as activators. actives 0.48% (n = 73,000); active = well fitted activation curve of enough size with the parental cells flat; inconclusive = any curve in the parental cells; inactive = parental cells flat and receptor cells flat or falling; note: potency is the fitted concentration of half-maximal effect; % of control where 0% means no effect; weak receptor curves with flat parental cells got no call and are not listed
Target sequence (P16473 whole entry, looked up): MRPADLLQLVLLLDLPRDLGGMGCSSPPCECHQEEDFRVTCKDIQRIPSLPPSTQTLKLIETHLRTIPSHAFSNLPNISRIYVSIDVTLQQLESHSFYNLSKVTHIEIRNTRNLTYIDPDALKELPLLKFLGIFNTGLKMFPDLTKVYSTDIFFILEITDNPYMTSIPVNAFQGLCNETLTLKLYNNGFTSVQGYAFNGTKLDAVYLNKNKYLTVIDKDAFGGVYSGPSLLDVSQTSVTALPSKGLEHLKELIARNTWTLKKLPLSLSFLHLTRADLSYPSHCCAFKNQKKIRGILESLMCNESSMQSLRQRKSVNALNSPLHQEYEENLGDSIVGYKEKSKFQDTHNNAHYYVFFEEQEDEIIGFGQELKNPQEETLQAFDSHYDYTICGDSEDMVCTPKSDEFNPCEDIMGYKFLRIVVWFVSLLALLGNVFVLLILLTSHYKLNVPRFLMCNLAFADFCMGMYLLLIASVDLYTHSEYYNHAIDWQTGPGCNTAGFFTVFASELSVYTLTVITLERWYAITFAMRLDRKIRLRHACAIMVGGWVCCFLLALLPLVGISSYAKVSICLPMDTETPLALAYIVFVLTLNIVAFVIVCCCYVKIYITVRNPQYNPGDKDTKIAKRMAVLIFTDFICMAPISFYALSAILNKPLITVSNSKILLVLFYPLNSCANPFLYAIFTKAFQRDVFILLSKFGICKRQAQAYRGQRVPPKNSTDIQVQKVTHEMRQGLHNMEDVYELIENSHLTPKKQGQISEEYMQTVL
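HEK 293 cells stably expressing TSHR and a cAMP-gated CNG channel; parental CNG-only cells as counterscreen. Cells preloaded 60 min with membrane potential dye plus 100 uM RO 20-1724, then compound 30 min; fluorescence read at 590 nm.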
AID923: qHTS Assay for Allosteric/Competitive Inhibitors of Caspase-1: Spectroscopic Profiling in AFC Spectral Region. compound fluorescence, AFC spectral region (405/520 nm); almost no hit is shown here. Potency, µM (series often up to 57.5 µM), for the others: at the highest dose fluorescence increase, hits mostly activators. actives 1.1% (n = 75,000). AID 923, 2007; active = well fitted activation curve with a large enough effect; inconclusive = small, poorly fitted or top-dose-only effect;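 note: potency is the fitted concentration of half-maximal effect; 0% is about no effect; scaled to a free AFC standard on each plate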
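Baseline compound fluorescence (AFC region, 405 nm ex/520 nm em) taken from the intercept of kinetic reads with 50 nM caspase-1 and 5 uM Ac-WEHD-AFC; normalized to an on-plate AFC standard curve; compounds titrated up to 57 uM.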
A488 autofl: qHTS Assay for Spectroscopic Profiling in A488 Spectral Region; AID 591, 2007; actives 0.1% (n = 59,000); compound autofluorescence, A488 spectral region, dye equivalency; stronger effect = higher value; max dye equivalency, M; active = above 10 nM dye equivalent; inconclusive = 1 to 10 nM; inactive = 1 nM or less; about half of its hits are not listed in these tables;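 note: highest value over a series up to 38 µM; compound alone in buffer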
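Read-out: relative fluorescence at 480/540 nm, expressed as Alexa 488 dye-equivalent concentration from a six-point A488 standard included per plate. Conditions: 100 mM Tris, pH 8.0; 15 min incubation, room temperature.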
Resorufin fluor: qHTS Assay for Spectroscopic Profiling in Resorufin Spectral Region; Compound fluorescence, resorufin region 547/598 nm, buffer; stronger effect = higher value; max dye-equivalent concentration, M; actives 0.04% (n = 59,000); AID 588, 2007; active = above 10 nM dye equivalent; inconclusive = 1 to 10 nM; inactive = 1 nM or less; a few of its hits are not listed in these tables; note: highest value over a series up to 38 µM
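Compounds in 100 mM Tris buffer, pH 8.0, incubated 15 min at room temperature, then read with 547 nm excitation and 598 nm emission filters. Fluorescence was converted to dye-equivalent concentration using an on-plate six-point resorufin standard curve.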
Numbers without * were called inactive; [ ] = remark or other dose. A portion of the library; rates above refer to the full screens.

For COc1ccc(C2C(C(=O)c3sc(C)nc3C)=C(O)C(=O)N2CCN(C)C)cc1OC (centres undefined) the results were A647 autofl 3.2e-09, TSHR ag 0%, AID923 0.3%, A488 autofl inactive and Resorufin fluor inactive.
`O=C(CCCCCN1C(=O)c2ccccc2C1=O)NC1CCCC1` gave A647 autofl 4.2e-08, TSHR ag -5%, AID923 1.1%, A488 autofl inactive and Resorufin fluor inactive.
COc1ccc(NC(=O)c2nnn(Cc3cccc(F)c3)c2N)c(OC)c1 was read as TSHR ag -6% and AID923 2.6%.
`CC1CC(=O)Nc2ccccc2S1(=O)=O` (centres undefined) gave A647 autofl 5.7e-09, TSHR ag -2%, AID923 -0.2%, A488 autofl inactive and Resorufin fluor inactive.
For CCn1c(SCC(=O)c2c[nH]c3ccccc23)nnc1-c1cccs1 the results were A647 autofl 5.7e-09, TSHR ag 9%, AID923 -0.2%, A488 autofl inactive and Resorufin fluor inactive.
`O=C(O)c1cccc(NC(=O)C2CC(=O)N(Cc3ccccc3)C2)c1` (centres undefined) gave A647 autofl 2.7e-09, TSHR ag 3%, AID923 -1.3%, A488 autofl inactive and Resorufin fluor inactive.
Screening OCCN(Cc1ccccc1)Cc1cccc(F)c1 returned A647 autofl 1e-09, TSHR ag 11%, AID923 -0.6%, A488 autofl inactive and Resorufin fluor inactive.
`Cc1noc(C)c1C(=O)N1CCC[C@@]2(CCN(c3cccc(-c4ccccc4)c3)C2)C1` gave A647 autofl 1e-09, TSHR ag inconclusive, AID923 3.2%, A488 autofl inactive and Resorufin fluor inactive.
`CCNC(=O)/N=C1/NC(=O)C(C(C)C)O1` (centres undefined) gave A647 autofl 3.6e-09, TSHR ag -1%, AID923 3.6%, A488 autofl inactive and Resorufin fluor inactive.
`Cc1ccc2c(c1)N[C@H](c1ccc(C(=O)O)cc1)c1cccn1-2` gave A647 autofl 2.4e-08, TSHR ag 4%[11.4 µM], AID923 1.7%[11.5 µM], A488 autofl inactive and Resorufin fluor inactive.
Cn1c(NC(=O)c2cccs2)c(-c2cccs2)c(=O)c2ccccc21 was read as A647 autofl 1e-09, TSHR ag 24%, AID923 1.5%, A488 autofl inactive and Resorufin fluor inactive.
`CCOC(=O)c1c(C)[nH]c(C(=O)Cn2nnc(-c3ccccc3)n2)c1C` gave A647 autofl 1.5e-09, TSHR ag 16%, AID923 -0.5%, A488 autofl inactive and Resorufin fluor inactive.
Screening COc1ccc(COC(=O)N/N=C2/C[C@@H](O)[C@@H](O)[C@@H]3[C@@H]4C(=O)N(C[C@@H]5CCCO5)C(=O)[C@H]4CC[C@H]23)cc1 returned TSHR ag 4%[11.4 µM] and AID923 2.8%[11.5 µM].
For O=C1CC(N2CCN(c3ccccc3)CC2)C(=O)N1CCc1ccccc1 (centres undefined) the results were TSHR ag 14% and AID923 -0.8%.
`CCCCC(CC)CNC(=O)c1cccs1` (centres undefined) gave TSHR ag inconclusive and AID923 -3.5%.
Screening CC(C)C(=O)N(Cc1ccc2c(c1)OCO2)Cc1ccccn1 returned A647 autofl 1.4e-08, TSHR ag 9%, AID923 1.9%, A488 autofl inactive and Resorufin fluor inactive.
Cc1ccc(OCCCn2c(CO)nc3ccccc32)cc1 was read as A647 autofl 1.2e-08, TSHR ag 11%, AID923 -2.7%, A488 autofl inactive and Resorufin fluor inactive.
Screening CC(C)(O/N=C(\C(=O)N[C@@H]1C(=O)N2C(C(=O)[O-])=C(C[n+]3ccccc3)CS[C@@H]12)c1csc(N)n1)C(=O)O returned A647 autofl 2.6e-08, TSHR ag -9%[25.6 µM], AID923 5.0%[25.7 µM], A488 autofl inactive and Resorufin fluor inactive.
Screening CCCCCCn1ccc(=N)cc1 returned A647 autofl 3.2e-08, TSHR ag 9%, AID923 1.7%, A488 autofl inactive and Resorufin fluor inactive.
`O=C(O)CC(C(=O)OCC1CCCO1)N1CCOCC1` (centres undefined) gave A647 autofl 1.1e-09, A488 autofl inactive and Resorufin fluor inactive.
For COc1cccc(NS(=O)(=O)c2cn(C)c(=O)n(C)c2=O)c1 the results were TSHR ag 2% and AID923 7.9%.
`O=S(=O)(NCCc1ccc2c(c1)OCCO2)c1cccs1` gave A647 autofl 1e-09, TSHR ag 21%, AID923 0.2%, A488 autofl inactive and Resorufin fluor inactive.
For CC1CCN(C(=O)Cn2c(=O)n(Cc3ccc4c(c3)OCO4)c(=O)c3ccccc32)CC1 the results were A647 autofl 7.7e-09, TSHR ag inconclusive, AID923 -0.7%, A488 autofl inactive and Resorufin fluor inactive.
Cc1nc2ccccc2n1CC(=O)OCC(=O)Nc1ccc2c(c1)OCCO2 was read as A647 autofl 1.4e-08, TSHR ag inconclusive, AID923 -1.0%, A488 autofl inactive and Resorufin fluor inactive.
COc1cccc(C2CC(c3ccccc3)n3ncnc3N2)c1 (centres undefined) was read as TSHR ag -3% and AID923 1.1%.
`CC(C)(C)C(=O)CNS(=O)(=O)c1ccc(S(=O)(=O)NC2CCCC2)cc1` gave A647 autofl 5.2e-09, TSHR ag -1%, AID923 -1.3%, A488 autofl inactive and Resorufin fluor inactive.
For O=C(Cn1cc(C(=O)c2cccs2)c2ccccc21)NCc1cccs1 the results were A647 autofl 1e-09, TSHR ag 99%, AID923 1.7%, A488 autofl inactive and Resorufin fluor inactive.
For CCOCCCNC(=O)C1CCCN1C(=O)NC1CCCCC1 (centres undefined) the results were A647 autofl 1e-09, TSHR ag inconclusive, AID923 -2.5%, A488 autofl inactive and Resorufin fluor inactive.
`O=C(NCCN1CCOCC1)c1cccc(S(=O)(=O)N2CCCCCC2)c1` gave A647 autofl 1e-09, TSHR ag -3%, AID923 3.1%, A488 autofl inactive and Resorufin fluor inactive.
Clc1ccc(Cn2ncc3c(N4CCCC4)ncnc32)cc1 was read as A647 autofl 2.6e-08, TSHR ag 5%, AID923 0.6%, A488 autofl inactive and Resorufin fluor inactive.
For c1ccc(OCCCn2nnc(-c3cccnc3)n2)cc1 the results were A647 autofl 1.3e-08, TSHR ag 4%, AID923 1.1%, A488 autofl inactive and Resorufin fluor inactive.
c1coc(Cn2c(SCc3nc4ccccc4[nH]3)nnc2-c2cccs2)c1 was read as A647 autofl 1e-09, TSHR ag 30%, AID923 1.4%, A488 autofl inactive and Resorufin fluor inactive.
COc1ccc(C(C)=O)cc1CN1C(=O)C(C)N(c2ccc(C)cc2)C1=O (centres undefined) was read as A647 autofl 4.8e-09, TSHR ag 8%, AID923 -0.7%, A488 autofl inactive and Resorufin fluor inactive.
CC(=O)C1=C(O)C(=O)N(CCN2CCOCC2)C1c1ccccc1 (centres undefined) was read as A647 autofl 3.3e-08, TSHR ag 0%, AID923 2.4%, A488 autofl inactive and Resorufin fluor inactive.
Screening O=C1OC(c2ccccc2)=C/C1=C\N1CCOCC1 returned A647 autofl 1e-09, TSHR ag 0%, AID923 -0.7%, A488 autofl inactive and Resorufin fluor inactive.
N#CCCn1c(=O)c(-c2cc(F)cc(F)c2)nc2cnc(Oc3ccccc3)nc21 was read as A647 autofl 1e-09, TSHR ag inconclusive, AID923 11%, A488 autofl inactive and Resorufin fluor inactive.
`CO[C@H]1[C@H](O[C@H]2O[C@@H](C)[C@@H](O[C@@H]3C[C@](C)(O)[C@H](O)[C@H](C)O3)[C@@H](N(C)C)[C@@H]2O)[C@@H](CC=O)C[C@@H](C)[C@@H](O[C@H]2CC[C@H](N(C)C)[C@H](C)O2)/C=C\C=C/C[C@@H](C)OC(=O)C[C@H]1O` gave A647 autofl 1.7e-09, TSHR ag 11%[25.6 µM], AID923 4.0%[25.7 µM], A488 autofl inactive and Resorufin fluor inactive.
For C=CCn1c(SCC(=O)Nc2nccs2)nnc1-c1cc2cccc(OC)c2o1 the results were A647 autofl 2.5e-08, TSHR ag inconclusive, AID923 -0.4%, A488 autofl inactive and Resorufin fluor inactive.
For COC(=O)c1ccc(C)c(NC(=O)c2nn(C)c(=O)c3ccccc23)c1 the results were A647 autofl 5.2e-08, TSHR ag 5%, AID923 -0.6%, A488 autofl inactive and Resorufin fluor inactive.
`N#Cc1ccsc1NC(=O)c1cnccn1` gave A647 autofl 1e-09, TSHR ag -4%, AID923 1.4%, A488 autofl inactive and Resorufin fluor inactive.

Filtered by structure: the entries above containing a halogen
COc1ccc(NC(=O)c2nnn(Cc3cccc(F)c3)c2N)c(OC)c1 was read as TSHR ag -6% and AID923 2.6%.
Screening OCCN(Cc1ccccc1)Cc1cccc(F)c1 returned A647 autofl 1e-09, TSHR ag 11%, AID923 -0.6%, A488 autofl inactive and Resorufin fluor inactive.
Clc1ccc(Cn2ncc3c(N4CCCC4)ncnc32)cc1 was read as A647 autofl 2.6e-08, TSHR ag 5%, AID923 0.6%, A488 autofl inactive and Resorufin fluor inactive.
N#CCCn1c(=O)c(-c2cc(F)cc(F)c2)nc2cnc(Oc3ccccc3)nc21 was read as A647 autofl 1e-09, TSHR ag inconclusive, AID923 11%, A488 autofl inactive and Resorufin fluor inactive.

Further structures:
Screening Clc1ccc2c(NC3CCC(N4CCCCC4)CC3)ccnc2c1 (centres undefined) returned A647 autofl 1e-09, TSHR ag 8%[11.4 µM], AID923 -0.6%[11.5 µM], A488 autofl inactive and Resorufin fluor inactive.
`N#C/C(=C\c1ccc(O)c(O)c1)C(=O)NCCc1ccccc1` gave A647 autofl 2.5e-08, TSHR ag inconclusive, AID923 -2.8%, A488 autofl inactive and Resorufin fluor inactive.
COc1ccc(Oc2c(C)oc3c(CN(C)C)c(O)ccc3c2=O)cc1 was read as A647 autofl 7.6e-09, TSHR ag 2%, AID923 1.6%, A488 autofl inactive and Resorufin fluor inactive.
`CCc1ccc2c(c1)C(NC(C)=O)C(=O)N2CC` (centres undefined) gave TSHR ag 21% and AID923 -1.4%.
Screening O=C(NCC1CCCO1)C1c2ccccc2C(=O)N1C1CCCCCCC1 (centres undefined) returned A647 autofl 6.8e-09, TSHR ag inconclusive, AID923 -1.0%, A488 autofl inactive and Resorufin fluor inactive.
`CCS(=O)(=O)n1nc(-c2ccco2)nc1SC` gave A647 autofl 1e-09, TSHR ag 8%, AID923 1.9%, A488 autofl inactive and Resorufin fluor inactive.
For Cc1ccc(S(=O)(=O)C(F)(F)F)cc1NC(=O)c1cccnc1 the results were A647 autofl 6.1e-09, TSHR ag -16%, AID923 -1.5%, A488 autofl inactive and Resorufin fluor inactive.
CCOc1cc(S(=O)(=O)N2CCCCC2)ccc1Cl was read as A647 autofl 8.8e-09, TSHR ag inconclusive, AID923 2.7%, A488 autofl inactive and Resorufin fluor inactive.
`O=C(Cc1cc(=O)[nH]c(=O)[nH]1)N1CCN(C(=O)c2ccco2)CC1` gave TSHR ag inconclusive and AID923 -2.2%.
Screening Cc1cc(NC(=O)CSc2nc(CCC3CCCC3)nc3ccccc23)no1 returned A647 autofl 3.3e-08, TSHR ag inconclusive, AID923 0.6%, A488 autofl inactive and Resorufin fluor inactive.
CC(=O)c1cccc(N(CC(=O)N2CCOCC2)S(C)(=O)=O)c1 was read as A647 autofl 1e-09, TSHR ag inconclusive, AID923 2.3%, A488 autofl inactive and Resorufin fluor inactive.
`COc1cccc(N2CCN(C(=O)CN(C)S(=O)(=O)c3ccc4c(c3)CCC(=O)N4)CC2)c1` gave TSHR ag -1% and AID923 -1.4%.
Screening NN(CC(=O)O)CC(=O)O returned A647 autofl 3.3e-09, TSHR ag 0%[11.4 µM], AID923 4.1%[11.5 µM], A488 autofl inactive and Resorufin fluor inactive.
